# High-throughput results from PubChem BioAssay.
# AmpC inh no det – inhibitors of E. coli AmpC beta-lactamase without detergent; AmpC nitrocefin hydrolysis, absorbance 480 nm, no detergent; potencies from a single point are estimates; Potency, µM (doses to about 28.7 µM), without a hit: at the top dose activity change, negative = inhibition; 71,000 tested, 1.8% active; active = falling curve, for most hits resting on a single point; inconclusive = weak or doubtful change; inactive = flat or rising curve; also: % of control where 0% means no effect; about half of the hits show no inhibition at the top dose; a quarter of the inactives give rising signals
# Target sequence (P00811 whole entry, looked up): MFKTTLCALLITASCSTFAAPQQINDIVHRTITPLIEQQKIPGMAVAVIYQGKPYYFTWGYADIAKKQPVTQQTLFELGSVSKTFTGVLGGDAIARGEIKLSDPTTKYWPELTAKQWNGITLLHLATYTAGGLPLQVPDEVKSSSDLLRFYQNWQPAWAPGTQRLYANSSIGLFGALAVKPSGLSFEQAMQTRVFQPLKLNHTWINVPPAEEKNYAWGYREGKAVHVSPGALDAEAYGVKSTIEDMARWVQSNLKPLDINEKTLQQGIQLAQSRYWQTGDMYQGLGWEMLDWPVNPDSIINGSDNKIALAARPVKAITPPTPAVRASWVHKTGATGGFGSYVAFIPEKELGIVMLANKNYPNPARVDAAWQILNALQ
#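 AmpC in 20 mM phosphate buffer pH 7.0 was preincubated 15 min at room temperature with compounds. Nitrocefin (800 uM stock) was then added and hydrolysis followed at 480 nm every 20 s for 4 min.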
# An asterisk follows results filed as active; [ ] = remark or other dose. Potency is read from the fitted curve at half-maximal effect. An excerpt. The share of hits here may be higher or lower than overall.
no.	Structure	AmpC inh no det
1	O=CN1CCN(C[C@H](O)CN2CCCCC2)CC1	-5.5%[5.75 µM]
2	Cc1ccc(CNC(=O)c2cc3c(=O)n4cccc(C)c4nc3n(CC3CCCO3)c2=N)cc1 (stereo not drawn)	53.5%
3	CCCCC(=O)Nc1cccc(NC(=O)CC)c1	3.4%
4	CN1CC[C@@]2(CCCN(C(=O)c3ccncc3)C2)C1	12.9%
5	COc1ccc(-c2cc(=O)c3ccc(O)cc3o2)cc1	-21.9%
6	CCCc1cc(N2CCCC(C(=O)Nc3c(OC)cccc3OC)C2)n2ncnc2n1 (stereo not drawn)	5.9%
7	CCN(CC)CCNC(=O)COc1ccc(OC)cc1	-12.2%[12.8 µM]
8	COC(=O)CCC(=O)Oc1ccc(OC(=O)CCC(=O)OC)cc1	13.4%
9	CC(C)CN(CC(C)C)S(=O)(=O)N1CCC(C(=O)NCc2ccc(F)cc2)CC1	57.0%
10	Cc1c(C(=O)OC(C)C)[nH]c2c1C(=O)CCC2	3.9%
11	COCc1cc(C)nc(SCC(=O)c2ccc(O)c(O)c2)c1C#N	-15.2%
12	C=CCn1c(O)c(C(CC)=NCCCO)c(=O)[nH]c1=O	13.0%
13	Cc1ccc(-c2cc(C(F)(F)F)n3ncc(C(=O)O)c3n2)cc1	-3.2%
14	CCCN(CCC)C1CC(=O)N(Cc2ccccc2)C1=O (stereo not drawn)	30.0%
15	COc1ccc(S(=O)(=O)N2CCN(C(=O)COc3ccc4c(C)cc(=O)oc4c3)CC2)cc1	89.3%
16	Cn1c(=O)c2c(ncn2CC(=O)OCc2ccccc2)n(C)c1=O	8.4%
17	CNC(=O)c1cccc(N2CCCC2=O)c1	-13.0%
18	Cc1onc(-c2ccccc2)c1C(=O)NCc1ccccn1	3.1%
19	O=C(c1cc(-c2ccccc2O)on1)N1CCCC1	-1.0%
20	CCn1nnc(-c2ccccc2NC(=O)c2cc(OC)cc(OC)c2)n1	28.0%
21	Cc1[nH]c2ccccc2c1C(O)CN1CCN(c2cccc(C(F)(F)F)c2)CC1 (stereo not drawn)	42.2%
22	CCOc1ccc(S(=O)(=O)Nc2ccc(Cl)cn2)c(C)c1C	-13.7%
23	CCOC(=O)c1c(C)n(Cc2ccccc2)c2ccc(OCC(O)CN3C(=O)CNC3=O)cc12 (stereo not drawn)	152.8%
24	CC(C)C(OC(=O)c1ccco1)C(=O)NCc1ccco1 (stereo not drawn)	43.8%
25	CCCCCCOC(=O)NCC(O)c1ccccc1 (stereo not drawn)	8.7%
26	CCN1CCN(Cc2ccc(NC(=O)Nc3ccccc3)cc2)CC1	1.3%
27	Cn1c(=O)c2c(ncn2CC(=O)NCc2cccnc2)n(C)c1=O	-0.9%
28	COc1ccc(CCNS(=O)(=O)c2ccccc2)cc1OC	-2.7%
29	CC(c1cccnc1)N(CCN(C)C)C(=O)Nc1ccc(Cl)c(Cl)c1 (stereo not drawn)	26.8%
30	COc1ccccc1NC(=O)c1ccc(COc2ccccc2OC)o1	24.5%
31	COc1cc(NC(=O)C2CCCO2)c(C(=O)O)cc1OC (stereo not drawn)	-10.1%
32	O=C(NC1CCN(Cc2ccccc2)CC1)C1CCN(c2nnc(-n3cccc3)s2)CC1	41.4%
33	O=C1CN(C(=O)COc2ccccc2)CCN1	3.6%
34	COC(=O)C1=C(C)NC(C)=C(C(=O)OCCN(C)Cc2ccccc2)[C@H]1c1cccc([N+](=O)[O-])c1	73.2%[12.8 µM]
35	CC[C@@H]1Cc2cc(O)ccc2C2=C1c1ccc(O)cc1C[C@H]2CC	-17.1%
36	Cc1ccc(S(=O)(=O)N2CC3CCC2C3)cc1 (stereo not drawn)	-12.8%
37	CC(=O)c1cccc(NC(=O)c2cc(-c3ccc(C)cc3)on2)c1	-8.6%
38	COc1cc2c(cc1OC)C(=NCCC(=O)O)NC(C)(C)C2	-19.0%
39	O=C(NC(NC1CCS(=O)(=O)C1)C(=O)c1cccs1)c1ccccc1 (stereo not drawn)	-8.2%
40	c1coc(CNc2c3c(nc4ncnn24)CCC3)c1	-3.0%
41	CCOc1ccc(-n2c(=O)cc(N3CCN(c4ccc(F)cc4)CC3)[nH]c2=O)cc1	8.7%
42	CCOC(=O)/C(C#N)=C(\N)C(C)C(=O)Nc1ccccn1 (stereo not drawn)	1.1%
43	O=C(c1ccncc1)N1CCC2(CCCN(c3ccccn3)C2)CC1	61.9%
44	O=C(CSc1nc2ccccc2o1)NCc1ccc2c(c1)OCO2	-21.9%
45	O=C(CSc1nnc(Cc2cccs2)n1-c1ccccc1)NC1CCCCC1	38.7%
46	CN1CCc2c(sc3c2C(=O)NC(/C=C/c2ccco2)N3)C1 (stereo not drawn)	26.1%
47	O=C(CSc1nc(O)cc(=O)[nH]1)C1CC1	-3.0%
48	O=S(=O)(c1ccc(Cl)cc1)N1CCN(c2ccc(N3CCOCC3)nn2)CC1	14.9%
49	CC(C)CN1CCCC2(CCN(C(=O)Oc3ccccc3)CC2)C1	42.7%
50	CCCN1CCN(CCCNC(=O)Cn2nc(-c3ccc(Cl)cc3)ccc2=O)CC1	2.6%

# In a second layout: results already given.
48. O=S(=O)(c1ccc(Cl)cc1)N1CCN(c2ccc(N3CCOCC3)nn2)CC1
  AmpC inh no det = 14.9%

42. CCOC(=O)/C(C#N)=C(\N)C(C)C(=O)Nc1ccccn1 (stereo not drawn)
  AmpC inh no det = 1.1%

# New compounds follow
no.	Structure	AmpC inh no det
51	CN(c1ccc(Cl)cc1)c1cc(=O)n(C)c2ccccc12	74.8%
52	c1csc(-c2noc(COc3ccc4c(c3)CCCC4)n2)c1	-19.4%
53	Cc1ccc2oc(=O)c3cnn(CC(=O)NC4CCCCC4C)c3c2c1 (stereo not drawn)	-4.7%
54	CC(C)CNCCc1ccccn1	3.6%[5.75 µM]
55	CCC(=O)Nc1ncnc2ncn(C(=O)CC)c12	-4.9%[5.75 µM]
56	Cc1cc(C(=O)COC(=O)CCC(=O)c2ccc3c(c2)OCCO3)c(C)n1Cc1ccco1	-2.1%
57	CCCOc1ccc(C(=O)NCCC(=O)NCCCC(=O)OCC)cc1	38.2%
58	CN(Cc1ccccc1)Cc1nc2c(c(=O)n(C)c(=O)n2C)n1CCc1ccccc1	116.8%
59	COc1ccc2c(=O)c3c(=O)n(Cc4ccco4)c(-c4ccc(C)cc4)nc3oc2c1	48.2%
60	CCOC(=O)c1ccccc1NC(=O)CC1SC(=NC)N(C)C1=O (stereo not drawn)	48.5%
61	CS(=O)(=O)N(CC(=O)NCc1ccncc1)c1cc(Cl)cc(Cl)c1	5.9%
62	CCCn1c(SCC(=O)N2CCc3ccccc32)nnc1-c1ccco1	97.5%
63	Cc1nn(-c2ccccc2)c(C)c1C(=O)OCC(=O)NC(=O)NC1CCCCC1	30.1%
64	CCC(=O)Nc1c(C#N)c2nc3ccccc3nc2n1-c1ccc(C)cc1	34.9%
65	CC(=O)Nc1ccc(S(=O)(=O)N(CC(=O)O)Cc2ccccc2)cc1	5.7%
66	CCOCCCNC(=O)CCNS(=O)(=O)c1ccc(C)cc1	-11.7%
67	CCOC(=O)COc1ccc2c(c1)C(=O)CC(C)(C)O2	-6.1%
68	Cc1csc(SC(C)C(=O)Nc2ccc(S(=O)(=O)N3CCCC3)cc2)n1 (stereo not drawn)	13.0%
69	O=C(OCc1nc2ccccc2s1)c1cccc(S(=O)(=O)N2CCOCC2)c1	95.5%
70	CCn1c2c(c3ccc(OC)cc31)CCCC2=O	23.4%
71	CCOC(=O)c1sc(NC(=O)c2ccc(S(=O)(=O)N3CCOCC3)cc2)cc1C	73.9%
72	CCOC(=O)CC12CN3CN(C1)CC(CC(=O)OCC)(C3)C2=O	-5.1%
73	CSc1nnc(-c2sc3cc(Cl)ccc3c2Cl)n1C	61.1%
74	CC1(C)Oc2ccc3ccc(=O)oc3c2/C(=C/Nc2ccccn2)C1=O	5.1%
75	COC(=O)c1nc(C(=O)OC)c(C(=O)OC)nc1C(=O)OC	-7.6%
76	Cn1c(=O)c2c(nc(CN3CCN(c4ccc(F)cc4)CC3)n2CCN2CCOCC2)n(C)c1=O	0.8%
77	Cc1cnc(NC(=O)CSc2nnc(-c3ccccc3)n2Cc2ccccc2)s1	66.6%
78	O=C(Nc1ccc(CCC(=O)N2CCCC2)cc1)c1ncn[nH]1	-0.8%
79	COc1ccc(CCNS(=O)(=O)c2ccc3c(c2)OCCO3)cc1OC	-3.6%
80	Cc1cc(C)c(C#N)c(SCC(O)CS(=O)(=O)Cc2ccccc2)n1 (stereo not drawn)	7.1%

# 4 compounds picked at random from the list so far, as already listed:
no.	Structure	AmpC inh no det
79	COc1ccc(CCNS(=O)(=O)c2ccc3c(c2)OCCO3)cc1OC	-3.6%
71	CCOC(=O)c1sc(NC(=O)c2ccc(S(=O)(=O)N3CCOCC3)cc2)cc1C	73.9%
77	Cc1cnc(NC(=O)CSc2nnc(-c3ccccc3)n2Cc2ccccc2)s1	66.6%
78	O=C(Nc1ccc(CCC(=O)N2CCCC2)cc1)c1ncn[nH]1	-0.8%

# (further entries)
no.	Structure	AmpC inh no det
81	CCc1nc(NCC2CCCO2)c2oc3ccccc3c2n1 (stereo not drawn)	16.8%
82	COc1ccc(OC)c(C(c2nnnn2Cc2ccccc2)N2CCN(C3CCCCC3)CC2)c1 (stereo not drawn)	47.3%
83	CNC(=O)CSc1nnc(-c2cc(C)cc(C)c2)o1	22.2%
84	CCn1c(=O)cc(OCC(=O)NCc2ccco2)c2ccccc21	-5.7%
85	Cc1[nH]c2ccccc2c1SCC(=O)N1CCOCC1	8.5%
86	c1ccc2c(-c3nc4ncccc4o3)cccc2c1	9.1%
87	CCN1C[C@@]2(C)CC[C@H](O)[C@@]34[C@@H]5C[C@H]6[C@H](O)[C@@H]5[C@](O)(C[C@@H]6OC)[C@H](C[C@@H]23)[C@H]14	-7.4%
88	Cc1cc(C(=O)CSc2n[nH]c(N)n2)c(C)n1-c1cc(F)ccc1F	-10.4%
89	CC(C)(C)NC(=O)CSc1nncn1NCc1ccccc1	2.8%
90	Cc1cc(NC(=O)CSc2nc(-c3ccc(F)cc3)cs2)no1	-13.1%
91	CCOc1ccc(NCC2CCOC(C)(C)C2)cc1 (stereo not drawn)	44.8%
92	COC(=O)c1cc2c(C)nn(-c3ccccc3)c2s1	29.2%
93	CCOC(=O)COc1ccc2nsnc2c1Cl	-2.1%
94	CN(Cc1ccco1)c1ccnc(-c2ccccc2C(F)(F)F)n1	35.2%
95	O=C(O)c1cccc(Cn2cccn2)c1	-6.9%
96	COC(=O)c1ccccc1NC(=O)CCNC(=O)Cn1cnc2ccccc2c1=O	16.1%
97	Cc1cccn2c(=O)c3cc(C(=O)N4COCC4(C)C)n(C)c3nc12	43.4%
98	O=C(c1ccncc1)N(Cc1ccccc1)Cc1nc2ccccc2c(=O)[nH]1	5.6%
99	NC(=O)c1oc2ccccc2c1NC(=O)CN1CCCCC1	4.0%
100	COC(=O)Nc1nn(Cc2ccccc2F)cc1Br	1.0%
101	O=C(OCN1C(=O)c2ccccc2C1=O)c1ccco1	10.0%
102	Cc1c(NC(=O)NCCN2C(=O)C3C4C=CC(C4)C3C2=O)c(=O)n(-c2ccccc2)n1C (stereo not drawn)	3.98µM*[single pt active]
103	COC(=O)CC1SC(=O)NC1=Nc1ccccc1 (stereo not drawn)	-1.9%
104	NC(=O)Cn1c(=O)oc2ccccc21	-9.6%
105	O=C(CCCNS(=O)(=O)c1cccs1)N1CCN(c2cccc(Cl)c2)CC1	66.0%
106	CCCC(=O)N(c1ccc2oc(=O)sc2c1)S(=O)(=O)c1cccs1	-4.9%
107	CCOC(=O)c1cc(-c2ccc3c(c2)OCO3)nc2onc(C)c12	27.5%
108	O=C(c1cc(-c2ccccc2)nc2ccccc12)N1CCOCC1	52.5%
109	O=C(Nc1ccccc1C(=O)NC1CCCC1)NC1CCCC1	-4.0%
110	O=C(CCNC(=O)c1ccc(Br)o1)NCc1ccccn1	-0.2%
111	CC1(C)CC(=O)N(CC(=O)O)c2ccccc2S1(=O)=O	-0.8%
112	Cc1ccc2nc(SCC(=O)O)nc(C)c2c1	-6.3%
113	COc1ccc(NC2CC(=O)N(c3ccccc3)C2=O)cc1 (stereo not drawn)	-7.0%
114	CCn1c2ccccc2c2nnc(SCCCn3c(=O)[nH]c4ccccc43)nc21	28.5%
115	COc1cc2c(C(=O)N3CCN(Cc4ccc5c(c4)OCO5)CC3)cn(C)c(=O)c2cc1OC	107.9%
116	COc1ccc(CNC(=O)c2cnc3scc(C)n3c2=O)cc1	47.3%
117	O=C(CCc1n[nH]c(=O)[nH]c1=O)N1CCCCC1	-4.7%
118	COc1ccccc1-c1c(C)nn2c(N3CCC4(CC3)OCCO4)cc(C)nc12	106.1%
119	Cc1cc(=O)oc(C)c1C(=O)NCCCN1CCN(c2ccccc2F)CC1	19.2%
120	Oc1ccccc1NCC(O)Cn1ccc2ccccc21 (stereo not drawn)	-2.2%
121	CCCc1[nH]nc2c1C(c1ccncc1)C(C#N)=C(N)O2 (stereo not drawn)	-6.8%
122	CCOc1nc(NCc2ccco2)nc(Nc2ccc(OC)cc2)n1	0.7%
123	Cc1cc(NC(=O)c2c(-c3ccccc3Cl)noc2C)no1	-8.7%
124	COc1ccc(N(CC(=O)Nc2nccs2)S(=O)(=O)c2c(C)nn(C)c2C)cc1	28.3%
125	Cc1nnc(SCCn2c(Br)nc3c2c(=O)n(C)c(=O)n3C)s1	-4.8%
126	COCCN1C(=O)C(=O)/C(=C(/O)c2cccc(OC)c2)C1c1ccco1 (stereo not drawn)	-5.6%
127	COC(=O)[C@@]1(Cc2ccc(F)cc2)[C@H]2c3cc(C(=O)N(C)C)n(CC4CC4)c3C[C@H]2CN1C(=O)c1ccccc1	180.9%
128	O=C(Cc1ccccc1)OCn1nnc2ccccc2c1=O	-0.3%
129	O=C(CSc1nnc(-c2cccc(S(=O)(=O)N3CCCCC3)c2)o1)NCCC1=CCCCC1	15.1%
130	Cc1cnc[nH]1	-11.0%
131	COc1ccccc1C(=O)Nn1cnc2ccccc2c1=O	8.5%
132	c1ccc2oc(N3CCNCC3)nc2c1	-0.1%
133	O=C(COC(=O)CCCNC(=O)c1ccc(Cl)cc1)NC1CC1	27.7%
